Bioassay records from PubChem BioAssay.
GIV-Gai inh: GIV-Galpha-i interaction inhibition; 210,000 tested, 0.42% active; AID 1224905; percent of control (FP), % (test concentration not listed); Galpha-i3/FITC-GIV peptide fluorescence polarization, 90 min; active compounds read low; scaled: aluminum fluoride 0%, vehicle 100%;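 active = replicate mean at 85% of control or lower, very high polarization wells dropped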;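 also: lower values mean more displacement of the GIV peptide from Galpha-i3; wells of about 15 µL received 100 nL stock; the first replicate is given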
Target sequence (P08753 whole entry, looked up): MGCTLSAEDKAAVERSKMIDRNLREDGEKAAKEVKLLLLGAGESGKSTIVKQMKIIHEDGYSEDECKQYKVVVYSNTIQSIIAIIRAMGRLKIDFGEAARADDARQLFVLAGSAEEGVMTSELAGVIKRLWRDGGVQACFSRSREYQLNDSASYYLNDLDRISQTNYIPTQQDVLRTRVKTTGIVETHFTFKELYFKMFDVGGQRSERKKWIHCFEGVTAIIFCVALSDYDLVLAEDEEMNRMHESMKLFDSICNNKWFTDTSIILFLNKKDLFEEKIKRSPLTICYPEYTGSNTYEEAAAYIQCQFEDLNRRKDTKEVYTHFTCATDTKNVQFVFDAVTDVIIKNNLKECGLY
Starred values were filed as active, the others as inactive.

Structure,GIV-Gai inh
C=CCN1C(=O)/C(=C\c2cc(OC)ccc2OC)SC1=Nc1ccccc1,105
Fc1ccccc1CSc1nc(NCC2CCCO2)c2ccccc2n1 (stereo not given),112
Cn1c(-c2ccccc2Cl)nn(C2CC(=O)C3OCC2O3)c1=S (stereo not given),113
CN(CCc1ccccn1)c1nc(-c2ccccc2F)nc2ccccc12,113
COc1cc(CN2CCCC2c2cc(C)no2)cc(OC)c1O (stereo not given),95
OC1CSc2sc(=S)sc2SC1,110
C=CCNC(=O)C1CCCN1C(=O)c1ccc(NS(=O)(=O)c2ccc(Br)cc2)cc1 (stereo not given),105
Cc1nc2cc(C(=O)NCc3cccnc3)ccc2n1-c1ccc(OCc2ccccc2)cc1,101
Cc1nc(-c2nc3c(s2)CN(C(=O)COc2ccc(Cl)cc2)CC3)cs1,102
CCOC(=O)C1=C(N)n2c(s/c(=C/c3ccccc3)c2=O)=C(C(=O)OCC)C1c1ccccc1 (stereo not given),113
CC(C)NC(=O)CC1CCN(C(=O)c2cc3ccccc3[nH]2)CC1,101
Cc1nc(S(=O)(=O)N(C)CC2(C)CCOCC2)cn1C,98
CC(NC(=O)c1nc(N2CCCC2)c2oc3ccccc3c2n1)c1ccccc1 (stereo not given),105
O=C1c2c(Cl)c(Cl)c(Cl)c(Cl)c2C(=O)N1C1C(=O)N(c2cc(Cl)cc(Cl)c2)C1c1cccs1 (stereo not given),110
Cc1ccnc(Nc2nc(-c3ccc(C)c(C)c3)cs2)c1,99

Fetched by structure from above, five records:
Structure,GIV-Gai inh
CN(CCc1ccccn1)c1nc(-c2ccccc2F)nc2ccccc12,113
Cc1nc2cc(C(=O)NCc3cccnc3)ccc2n1-c1ccc(OCc2ccccc2)cc1,101
C=CCN1C(=O)/C(=C\c2cc(OC)ccc2OC)SC1=Nc1ccccc1,105
Fc1ccccc1CSc1nc(NCC2CCCO2)c2ccccc2n1 (stereo not given),112
CCOC(=O)C1=C(N)n2c(s/c(=C/c3ccccc3)c2=O)=C(C(=O)OCC)C1c1ccccc1 (stereo not given),113

Exported with the structure last: 5 of the compounds above.
GIV-Gai inh | smiles
101 | Cc1nc2cc(C(=O)NCc3cccnc3)ccc2n1-c1ccc(OCc2ccccc2)cc1
102 | Cc1nc(-c2nc3c(s2)CN(C(=O)COc2ccc(Cl)cc2)CC3)cs1
113 | CN(CCc1ccccn1)c1nc(-c2ccccc2F)nc2ccccc12
99 | Cc1ccnc(Nc2nc(-c3ccc(C)c(C)c3)cs2)c1
101 | CC(C)NC(=O)CC1CCN(C(=O)c2cc3ccccc3[nH]2)CC1

New compounds follow
Structure,GIV-Gai inh
CCOC(=O)C1CCC(CNC(=O)N2CCCCCC2c2ccc(C)s2)CC1 (stereo not given),102
COc1ccc(NC(=O)c2sc3ncn(CC(=O)Nc4cccc(C(F)(F)F)c4)c(=O)c3c2C)cc1OC,114
CC(=O)N1CCc2cc(Br)c(S(=O)(=O)N3CCCC3c3c(C)noc3C)cc21 (stereo not given),106
CC(=O)Nc1cc2c(cc1[N+](=O)[O-])OCCOCCOc1ccc([N+](=O)[O-])cc1OCCOCCO2,104
COc1ccc(C2NC(C(=O)O)Cc3c2[nH]c2ccccc32)cc1OC (stereo not given),110
CSC1=NC(=Nc2cccc(C(F)(F)F)c2)C2(CCCCC2)N1c1ccccc1Cl,117
COc1ccc(C(=O)Oc2ccc3c(=O)c(-c4ccccc4Cl)coc3c2)cc1OC,99
Cc1ccc(N2CCN(c3ccc(C)cc3)C2c2ccc(OCC(N)=O)cc2)cc1,108
Cc1ccc(NC(=O)c2c(C)[nH]c(=S)c(C#N)c2-c2cccs2)c(C)c1,109
O=C(Nc1ccc(Oc2ccc(Br)c3ccccc23)c(Cl)c1)c1c(F)cccc1F,112
COc1cc(/C=C2\N=C(c3cccc([N+](=O)[O-])c3)OC2=O)cc(Br)c1OC(C)=O,100
Cc1cc(C)cc(NS(=O)(=O)c2cc(-c3nc(C)cs3)cs2)c1,115
COc1ccc(S(=O)(=O)Nc2nc(CC(=O)NCc3ccccc3)cs2)cc1,108
COC(=O)C(NC(=O)c1ccccc1Cl)(Nc1sc2c(c1C#N)CCC(C)C2)C(F)(F)F (stereo not given),104
Cc1ccsc1/C=C1/NC(=O)NC1=O,104

(cont.)
Structure,GIV-Gai inh
O=C(Nc1cccc(Cl)c1)N1CCN(Cc2cc(=O)n3nc(-c4ccccc4)sc3n2)CC1,96
COc1ccc(NC(=O)/C=C/C(=O)O)cc1Cl,106
CC1(C)CC(=O)C2=C(C1)Nc1ccccc1N(C(=O)NC1CCCC1)C2c1ccccc1 (stereo not given),104
CCc1ccc(NC(=O)CSc2nc3cc(C(=O)NCCCOC(C)C)ccc3c(=O)n2Cc2ccco2)cc1,113
Fc1ccc(Cn2c3ccc(Br)cc3c3nc4ccccc4nc32)cc1,108
O=C1C2C3c4ccccc4C(CO)(c4ccccc43)C2C(=O)N1c1ccccc1Cl (stereo not given),116
CCC(=O)Nc1nc(C)cc2c1c(=O)oc1ccccc12,112
CCOC(=O)C1=C(C)NC(C)=C(C(=O)OCC)C1c1cn(-c2ccccc2)nc1-c1ccc(OCC)c([N+](=O)[O-])c1,108
O=C(Nc1cccc(C(=O)O)c1)/C(=C\c1ccc2c(c1)OCO2)NC(=O)c1ccc(Br)cc1,110
CN(C)c1nc2ncn3c(=O)n(CC(=O)N4CCN(c5ccccc5)CC4)nc3c2s1,108
CC(=O)N1c2ccccc2N=C(c2ccccc2)CC1c1ccccc1 (stereo not given),110
Cc1ccc(-c2nc(-c3ccc4c(c3)C(=O)c3ccccc3-4)c(-c3ccccc3)[nH]2)cc1,109
N#Cc1ccc(C(=O)Nc2cc(-c3nc4ncccc4o3)ccc2Cl)c(F)c1,104
CC1=C(C(=O)OC2CCCC2C)C(c2ccccc2I)NC(=O)N1C (stereo not given),106
O=C(Cn1nc2n(Cc3cccs3)c(=O)c3sccc3n2c1=O)NCc1ccco1,101

More records follow:
Structure,GIV-Gai inh
CC1=C(C(=O)OCc2ccccc2)C(c2ccccc2)C(C#N)=C(N)O1 (stereo not given),103
CSc1nnc(-c2nn(C)c3c2CN(C(=O)C2CCCC2)CC3)n1C,99
C=CCOc1ccccc1C1CC(=O)Nc2c1cnn2-c1nc2ccccc2s1 (stereo not given),98
COc1cc(C2C3=C(CC(C)(C)CC3=O)OC3=C2C(=O)CC(C)(C)C3)c(Cl)cc1O,104
Cc1ccc2c(c1)C1CN(C)CCC1N2S(=O)(=O)c1c(C)[nH]c(=O)[nH]c1=O (stereo not given),107
Cc1csc(-c2cc(S(=O)(=O)Nc3ccc(F)cc3)cn2CC(=O)N2CCCC2)n1,108
Nc1cc(N2CCCCC2)c2nonc2c1[N+](=O)[O-],105
COc1ccc(C2c3cccn3CCN2S(=O)(=O)c2ccc(OC)cc2)cc1 (stereo not given),106
O=C1Nc2ccc(S(=O)(=O)Oc3ccc4ccccc4c3)c3cccc1c23,118
COc1ccc(-c2cc(-c3ccccc3)nc(SCC(=O)N3CCOCC3)c2C#N)cc1,109
CCOc1cc(C2Nc3ccc(C)cc3[C@H]3OCC[C@@H]23)cc(Br)c1OC (stereo not given in full),105
O=S(=O)(Nc1ccccc1-c1ccc2ccccc2n1)c1ccccc1F,102
CCC1=NN(C(=O)c2cccc([N+](=O)[O-])c2)C(O)(c2ccc(Cl)cc2)C1 (stereo not given),108
Clc1cccc(-c2nnc(-c3nc(N4CCOCC4)c4ccccc4n3)o2)c1,107
C=CCn1c(-c2ccc(Cl)cc2Cl)nn(C2CC(=O)C3OCC2O3)c1=S (stereo not given),108

Carrying on.
Structure,GIV-Gai inh
Cc1csc(-c2csc(S(=O)(=O)NCc3cccs3)c2)n1,99
O=c1c2ccccc2[nH]c(=S)n1CCN1CCOCC1,95
CC(C)CCSc1c(C(C)C)cnc2c1c(=O)n(C)c(=O)n2C,103
COc1ccc(N=Cc2ccc(O)c3c2OC(N)=C(C#N)C3c2cccc([N+](=O)[O-])c2)cc1 (stereo not given),126
O=c1ccc(-c2ccc3c(c2)OCO3)nn1CCc1nc(-c2ccccn2)no1,106
Cc1[nH]nc2nc(SCC(=O)NCc3ccccc3)n(-c3ccc(Br)cc3)c(=N)c12,105
CCCCn1nc2ccc(S(=O)(=O)N3CCSCC3)cn2c1=O,102
Cc1ccc2c(nc3s/c(=C\c4ccc(-c5cccc(C(F)(F)F)c5)o4)c(=O)n32)c1C,112
Cc1ccc(-c2noc3ncnc(NCCN(C)C4CCCCC4)c23)cc1,103
COc1ccc(-n2c(C)nc3cc(C(=O)NCc4ccc5c(c4)OCO5)ccc32)cc1,101
Cc1c(CC(Cl)(Cl)Cl)c2c(n1-c1cccc(F)c1)CC(C)(C)CC2=O,104
COc1ccc(OC)c(N2C(=O)C3C4c5ccccc5C(C(=O)O)(c5ccccc54)C3C2=O)c1 (stereo not given),114
CCc1ccc(C2=NN(c3ccccc3)C3(SC(c4ccccc4)=NN3c3ccccc3)c3ccccc32)cc1 (stereo not given),107
FC(F)(F)C1=Nc2cc(Cl)c(Cl)cc2N=C(c2cccs2)C1,105
O=C(C1CCN(c2cnc(N3CCCCCC3)nc2)CC1)N1CCCCC1,102

Carrying on.
Structure,GIV-Gai inh
CCNc1nc(NC(C)C)nc(Oc2ccc(=O)n(-c3ccccc3)n2)n1,108
COc1ccc(OCC(=O)N2CCc3c(c(C(=O)N4CCCC(C(=O)NC5CC5)C4)nn3C)C2)cc1 (stereo not given),103
COCCNC(=O)c1ccc2c(=O)n(Cc3ccco3)c(SCc3cc(C(C)=O)ccc3OC)nc2c1,114
CC1CCN(C(=O)c2cc3c(s2)CCC(C(=O)N2CCC(C)CC2)C3)CC1 (stereo not given),101
CCc1ccc(NC(=O)CSc2nc3cc(C(=O)OC)ccc3c(=O)n2CCc2ccc(S(N)(=O)=O)cc2)cc1,110
Cn1nc(-c2nc(-c3ccccc3)no2)c2c1CCN(C(=O)Cc1ccc(F)cc1)C2,98
CC(C)C1C(c2ccccc2)NC(c2ccccc2)CC1(C)O (stereo not given),105
COc1ccc2c(c1)-c1ccccc1S(=O)(=O)N2S(=O)(=O)c1ccc(C)cc1[N+](=O)[O-],128
NC(=O)C1(N2CCCCC2)CCN(C(=O)c2ccc3c(=O)n(Cc4ccc5c(c4)OCO5)c(=S)[nH]c3c2)CC1,116
CCc1ccc(NS(=O)(=O)c2c(C)sc(C)c2-c2n[nH]c(C)c2C)cc1,108
Cc1ccc(-c2noc(C3CC3)n2)cc1S(=O)(=O)N1CCC(C(=O)Nc2nccs2)CC1,100
Cc1nn(-c2ccc(F)cc2)c2c1c(=O)c(C(=O)NC1CC1)cn2C,100
CCc1ccc(C2CC(=O)Nc3cc(C)c(C)cc32)cc1 (stereo not given),115
CCN(CC)c1ccc(C2C(C#N)=C(N)N(c3ccc([N+](=O)[O-])cc3)C3=C2C(=O)CCC3)cc1 (stereo not given),109
CCC(CC)C(=O)N1CCN(C(=O)c2cc3cc(OC)ccc3[nH]2)CC1,97
CS(=O)(=O)N1CCC(n2cnc3ccc(Cl)cc3c2=O)CC1,108
COCC(CNC(=O)c1cc(S(=O)(=O)N2CCc3ccccc32)ccc1SCc1ccc(OC)cc1)COC,114
O=C1/C(=C/c2ccc(-c3ccc([N+](=O)[O-])cc3)o2)C=C(c2ccccc2)N1c1cccc(Cl)c1,114

A portion of the library; count on the stated rates, not on these rows.
